From PubChem BioAssay
TAR Tat displ – HIV-1 TAR-Tat binding disruption. HIV-1 TAR RNA, Tat peptide displacement FRET; active compounds read high. z-score (test concentration not listed). 100,000 tested, 0.6% active;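 also: score is relative to mean and SD of negative controls; some compounds called inactive have numbers as strong as hits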
CDC25B CDK2 inh – human CDC25B-CDK2/CyclinA binding inhibition; AID 1259370; HTRF CDC25B-CDK2/CyclinA binding, anti-His/anti-Flag; active compounds read high; z-score (no concentration beside the values); P30305+P24941; 94,000 tested, 0.72% active;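 also: score is relative to mean and SD of negative controls; strong numbers were not always called active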
* marks the source's active call; other numbers are inactive results; . = not tested or not shown.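 The calls were made as follows: active = z-score from 3 up in half or more of its runs; inactive = the rest.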 Random draw from the library. Share with any hit: about 0.94%.

SMILES	TAR Tat displ	CDC25B CDK2 inh
CC1CN(C(=O)Cn2cc(SCC(=O)NC(C)(C)C)c3ccccc32)CC(C)O1 (configuration not stated)	1.26	.
CC(C)c1cc(O)c(-c2ccccc2)c(=O)n1-c1ccc(Cl)cc1	.	-1.36
Cc1ccc(-c2nnc3c4ccccc4c(C)nn23)cc1S(=O)(=O)NCc1cccnc1	.	-0.47
CCCc1cc(=O)n2nc(N(C)CC(=O)NCCCOC)sc2n1	1.44	0.61
Cc1ccc(NC2=C(C(=O)c3ccccc3)N(C)S(=O)(=O)c3ccccc32)cc1	0.34	-1.09
Cc1cc(C)c(NC(=O)CSc2ncc3c(n2)-c2cc(Cl)ccc2N(C)S3(=O)=O)c(C)c1	-0.26	.
CCCCN1C(=O)C2CCC(=O)CC2C1=O (configuration not stated)	0.67	-1.72
O=C(CCCN1C(=O)c2cccnc2Oc2ccc(Cl)cc21)NC1CC1	1.21	.
CN1C(=O)c2ccccc2Sc2ccc(NC(=O)NCc3ccco3)cc21	0.85	-0.64
CCc1nn(CCCC(=O)Nc2c(C)cc(C)cc2C)c(=O)c2cc3occc3n12	1.06	0.09
CC(C)Oc1ccc(CNCC2CCOC(C)(C)C2)cc1 (configuration not stated)	0.55	-0.42
COc1ccc(Cl)cc1S(=O)(=O)NCc1cccn1Cc1ccc(Cl)cc1	0.92	.
Cc1c(C(=O)NCCCN2CCOCC2)cc(C(C)(C)C)n1-c1ccccc1	.	-2.58
CCc1nn(CCCC(=O)N2CCc3ccccc3C2)c(=O)c2cc3occc3n12	-0.49	1.5
Cn1c(=O)c2c(-c3ccccc3)n(-c3ccc(C(=O)O)cc3)cc2n(C)c1=O	.	0.26
O=C(O)C1=C(C(=O)Nc2ccccc2)SCCS1	.	-0.78
NS(=O)(=O)c1ccc(CCNCc2cccs2)cc1	0.74	-2.19
Cn1c(=O)c2c(nc(Sc3nnc(NC(=O)c4cccs4)s3)n2C)n(C)c1=O	-0.29	-2.31
CCCCN(C(=O)Cn1ncc2c3ccccc3n(CCC)c2c1=O)C1CCN(C(C)=O)CC1	1.31	.
COC(=O)Cc1nc(NC(=O)c2cccs2)sc1C	.	1.16
CC1(C)NC(=O)N(CC(O)COc2ccccc2Br)C1=O (configuration not stated)	.	-1.57
Cc1c(S(=O)(=O)c2ccc(C(C)C)cc2)nnn1-c1ccccc1	2.18	-1.32
Cc1c(C(=S)Nc2ccccc2)sc2ccccc12	.	-1.28
Cc1ccc(NS(=O)(=O)c2ccc3c(c2)NC(=O)C(C)CS3)c(C)c1 (configuration not stated)	0.64	.

Two successive entries from above:
SMILES	TAR Tat displ	CDC25B CDK2 inh
Cn1c(=O)c2c(-c3ccccc3)n(-c3ccc(C(=O)O)cc3)cc2n(C)c1=O	.	0.26
O=C(O)C1=C(C(=O)Nc2ccccc2)SCCS1	.	-0.78

The list continues.
SMILES	TAR Tat displ	CDC25B CDK2 inh
Cc1ccc(OC(=O)c2nc(S(C)(=O)=O)ncc2Cl)cc1C	2.89	-2.13
CCOc1ccccc1NS(=O)(=O)c1ccc2[nH]c3c(c2c1)CCCC3	2.25	.
CC1(C)Cc2nc3sc4c(SCC(=O)Nc5cccc(Cl)c5)ncnc4c3cc2CO1	-0.8	.
CC1Cc2ccccc2N1S(=O)(=O)c1ccc(CN2C(=O)c3cccnc3C2=O)cc1 (configuration not stated)	1.36	.
COCCCNc1oc(/C=C/c2ccc(OC)c(OC)c2)nc1C#N	1.86	0.01
COc1cccc(-c2nc(SCN3C(=O)c4ccccc4C3=O)[nH]c(=O)c2C#N)c1	.	-2.79
Cn1cc(C(=O)NCC2COc3ccccc3O2)c2c3ccccc3n(C)c2c1=O (configuration not stated)	.	0.52
CCCCN(C)C(=O)CCC(=O)N1CCCn2nc(C)cc21	2.02	.
C=CCc1cc(C(=O)N2CCCC2)ccc1O	-1.09	0.02
CCOc1ccc(/C=C/c2nc(C#N)c(N3CCNCC3)o2)cc1	0.65	0.97
CC(C)c1nnc2sc(-c3cc4ccccc4o3)nn12	0.82	1.11
NC(=O)CN1C(C(=O)c2ccccc2)=C(NCc2ccccc2)c2ccccc2S1(=O)=O	0.98	-0.12

Laid out differently: entries from further up
Under each structure – TAR Tat displ | CDC25B CDK2 inh
> Cc1ccc(-c2nnc3c4ccccc4c(C)nn23)cc1S(=O)(=O)NCc1cccnc1
→ . | -0.47
> CN1C(=O)c2ccccc2Sc2ccc(NC(=O)NCc3ccco3)cc21
→ 0.85 | -0.64

Going on with the list:
SMILES	TAR Tat displ	CDC25B CDK2 inh
COCCCNC(=S)Nc1cc(C)ccc1NS(=O)(=O)c1ccc(C)cc1	.	-0.04
COc1ccc(N2C(=O)CC(NCc3ccco3)C2=O)cc1 (configuration not stated)	.	0.28
Cn1c(=O)c2c(nc(Sc3ccc(NS(=O)(=O)c4ccc(F)cc4)cc3)n2C)n(C)c1=O	0.78	-0.61
Cc1noc(-c2ccc(Cl)cc2)c1NC(=O)NN1CCCCC1	.	-1.5
c1csc(-c2nnc(N3CCOCC3)c3ccccc23)c1	-1.92	-0.78
COc1ccc(OCC(=O)Nc2nc3c(s2)CCCC3)cc1	0.48	1.41
Cc1cc(Nc2ccc(F)cc2Cl)n2nc(-c3ccco3)nc2n1	0.64	.
COC(=O)c1c(C)oc2ccc(OCC(=O)O)cc12	1.74	-3.18
NC1=NC2(CCCC2)N=C(Nc2ccc(F)cc2)N1	.	-1.75
C=CCc1ccc(OCc2ccc(C(=O)OC)o2)c(OC)c1	0.6	-1.74
C=C(C)Cn1c(CN2CCOCC2)nc2ccccc21	0.03	-0.36
O=C1COc2cc(-c3c(NCCc4ccc(Cl)cc4)c(=O)c3=O)ccc2N1	-2.14	.
CCN1CCN(c2cc(Nc3ccc4c(c3)OCO4)c3c4c(onc24)-c2ccccc2C3=O)CC1	1.13	1.21
CC(C)CSc1nnc2[nH]c(=O)cc(N)n12	0.68	-0.8
Cc1cc2c3c([nH]c2cc1S(=O)(=O)N1CCC(c2ccccc2)C1)CCCC3=O (configuration not stated)	-1.49	.
O=C(c1cccs1)N1CCN(c2ccccn2)CC1	1.27	.
O=c1oc(-c2cccs2)nc2c(Br)cc(Br)cc12	.	-1.34
O=C(C1=Cc2cc(Cl)ccc2OC=C1)N1CCOCC1	1.1	0.23
Cn1cc(NC(=O)Nc2cccnc2)c2ccccc2c1=O	-0.48	.
Clc1ccc(C2=NN(Cc3ccccc3)CC2)s1	.	-0.81
CS(=O)(=O)N(CC(=O)NCc1ccco1)c1ccccc1Br	0.77	-0.36
O=S(=O)(CCN1CCN(c2ccccn2)CC1)c1ccc(F)cc1	.	-0.89
Cc1cc(C(N)=O)c2ccccc2n1	1.51	-1.04
Fc1ccc(-n2ncc3c(Nc4cccc(Cl)c4)ncnc32)cc1	1.61	.

Exported with bars between the fields: part of the list above.
SMILES | TAR Tat displ | CDC25B CDK2 inh
Cc1cc2c3c([nH]c2cc1S(=O)(=O)N1CCC(c2ccccc2)C1)CCCC3=O (configuration not stated) | -1.49 | .
CC(C)CSc1nnc2[nH]c(=O)cc(N)n12 | 0.68 | -0.8
Cc1cc(C(N)=O)c2ccccc2n1 | 1.51 | -1.04
O=C(c1cccs1)N1CCN(c2ccccn2)CC1 | 1.27 | .

Part of the list above in order of count of non-hydrogen atoms, falling:
SMILES	TAR Tat displ	CDC25B CDK2 inh
CC1Cc2ccccc2N1S(=O)(=O)c1ccc(CN2C(=O)c3cccnc3C2=O)cc1 (configuration not stated)	1.36	.
Fc1ccc(-n2ncc3c(Nc4cccc(Cl)c4)ncnc32)cc1	1.61	.
CS(=O)(=O)N(CC(=O)NCc1ccco1)c1ccccc1Br	0.77	-0.36

Other entries follow:
SMILES	TAR Tat displ	CDC25B CDK2 inh
C=CCOC(=O)n1c(SC)nc2ccccc21	0.85	0.54
O=C(Cn1ncc2ccsc2c1=O)N1CCN(c2ccccc2)CC1	0.01	-1.33
COc1ccc(-c2nnc(SCc3cc(=O)n4c(C)csc4n3)o2)cc1	1.36	-0.98
CN(Cc1ccccc1)C(=O)c1cc2c(-c3ccccc3F)nn(C)c2s1	0.43	1.95
Cc1c(C(=O)N2CCC(C)CC2)sc2ncn(CC(=O)N3CC(C)CC(C)C3)c(=O)c12 (configuration not stated)	.	-1.35
CCCCCn1c(C(C)NC(=O)C(C)(C)C)nc2ccccc21 (configuration not stated)	1.83	0.21
Cc1nc2cccnc2n1CCN1CCNCC1	1.46	.
C=CCOc1ccc(/C(O)=C2/C(=O)C(=O)N(CCCOC)C23C(=O)N(C)c2ccccc23)cc1 (configuration not stated)	0.98	0.45
Cc1cc(C)cc(NC(=O)Nc2nnc(N3CCCC3)s2)c1	0.91	0.1
COc1ccc(OC)c(-c2sccc2CC(=O)O)c1	0.97	-1.78
Cc1ccc(-n2nnc(-c3nc(-c4ccc(Br)cc4)no3)c2N)cc1	-0.3	.
Cc1nn(S(=O)(=O)c2ccc(Br)cc2)c(C)c1Sc1ccccc1	-0.83	0.15
Cc1ccc(S(=O)(=O)n2nc(C)c(S(=O)(=O)N3CCOCC3)c2C)cc1C	0.45	.
O=C(Nc1ccc(Cl)cc1)c1cc2c(s1)-c1ccc(Cl)cc1S(=O)(=O)C2	2.82	-1.47
Cc1csc2ncc(C(=O)Nc3ccc(Br)cc3F)c(=O)n12	1.79	-4.3
Nc1ccc(-c2nc3cc4sc(-c5ccc(N)cc5)nc4cc3s2)cc1	35.5*	4.5*
Fc1ccc(CSc2nncn3c2cc2occc23)c(Cl)c1	-1.1	.
Cc1ccc(-n2ncc3c(N4CCc5ccccc54)ncnc32)cc1	0.65	.
O=c1c(-c2cccc3ccccc23)c(C(F)(F)F)oc2c(CN3CCCCC3)c(O)ccc12	.	-4.32
Cc1c(C(=O)N(Cc2ccco2)c2ccccn2)oc2ccccc12	-0.06	-1.75
Cc1nn(-c2nc3ccccc3o2)c2c1C(c1ccc(F)c(F)c1)CC(=O)N2 (configuration not stated)	0.54	.
Nc1nc(-c2ccccc2Cl)nn1C(=O)c1cccc(Cl)c1	-0.56	-1.03
CCOC(=O)N1CCN(C(=O)c2cc3c(=O)n4cccc(C)c4nc3n2C)CC1	1.91	.
CC1Cc2cc(S(=O)(=O)N3CC=C(c4ccccc4)CC3)ccc2N1C(=O)C1CCC1 (configuration not stated)	-1.24	.
CCNC(=O)C(=O)NCC(c1ccco1)S(=O)(=O)c1ccc(F)cc1 (configuration not stated)	2.17	.
CC1CCCC(NC(=O)C(NS(=O)(=O)c2ccc3c(c2)CCC(=O)N3)c2ccccc2)C1C (configuration not stated)	.	-0.12
COc1ccc(C(c2sc3nc(C)nn3c2O)N2CCN(c3ccc(OC)cc3)CC2)cc1 (configuration not stated)	.	0.59
O=C(N/C(=C\c1ccc(-c2ccc([N+](=O)[O-])cc2)o1)c1nc2ccccc2[nH]1)c1ccccc1	.	-2.2
Cc1ccc(NS(=O)(=O)c2cc3[nH]c4c(c3cc2C)C(=O)CC(C)(C)C4)c(C)c1	2.02	.
CC1=C(C(=O)Nc2cc(C)ccn2)C(c2ccc(Cl)cc2)C2=C(CC(C)(C)CC2=O)N1 (configuration not stated)	2.8	-1.98
CCC1Sc2ccc(S(=O)(=O)CCC(=O)NCc3ccccn3)cc2NC1=O (configuration not stated)	0.11	.
CCC(Sc1nc2ncccc2[nH]1)C(=O)NC1CCC(C)CC1 (configuration not stated)	1.18	.
c1ccc(-c2nc3c4c5c(sc4ncn3n2)CCCC5)nc1	0.31	0.01
Cc1ccc2nc(-c3cccc(N)c3)oc2c1	0.05	0.6
CCOCCCN1CN(Cc2ccccc2)CNC1=S	.	-0.17
O=C(Nc1ccc2nc3n(c(=O)c2c1)CCCCC3)c1ccccn1	0.38	-0.71
O=C(CN1C(=O)COc2ccc(S(=O)(=O)N3CCOCC3)cc21)N1CCCCCC1	.	-1.29
COc1cc(Nc2ncnc3onc(-c4ccc(Cl)cc4)c23)cc(OC)c1	0.27	.
CN1C(=O)c2ccccc2C(C(=O)NC2CCCCCC2)C1c1cn(C)c2ccccc12 (configuration not stated)	.	-2.76
O=C1NC(c2cccc([N+](=O)[O-])c2)Nc2ccccc21 (configuration not stated)	.	-1.01
CN(C)C(=O)Oc1cccc([N+](C)(C)C)c1	0.9	-0.37
CN1CCc2cc3c(cc2C(=O)Cc2ccc4c(c2C1)OCO4)OCO3	-0.13	.
Nc1nc2c(s1)c(=O)[nH]c(=O)n2-c1ccccc1	1.22	0.38
CCOC(=O)N1CCN(C(=O)c2cc3c(=O)oc4ccccc4c3s2)CC1	0.21	-0.52
FC(F)(F)c1cccc(Cc2cn3cc(-c4ccccc4)nc3s2)c1	.	-0.04
O=C(CCc1nnc2ccc(NCc3ccc(Cl)cc3)nn12)NC1CCCCC1	1.16	.
COc1cc(C2C3=C(CC(C)(C)CC3=O)Nc3[nH]c(=O)[nH]c(=O)c32)ccc1O (configuration not stated)	0.08	-1.37
O=C(NCC(c1ccco1)S(=O)(=O)c1ccc(Cl)cc1)C(=O)NC1CC1 (configuration not stated)	1.77	.
Cc1cccc(CNS(=O)(=O)c2ccc(-c3cc(C)no3)s2)c1	0.62	.
O=C1CC(c2cc3c(cc2Cl)OCO3)c2cc3c(cc2N1)OCCO3 (configuration not stated)	1	0.73
CN(CC1CCCO1)S(=O)(=O)c1ccc(C(=O)Nc2nc(-c3cccnc3)cs2)cc1 (configuration not stated)	1.78	.
COc1ccc(NC(=O)COCc2cc(-c3ccco3)on2)c(OC)c1	-1.02	.
O=C(NCCC1=CCCCC1)[C@H](CSCc1ccccc1)N1Cc2ccccc2C1=O	1.56	-2.69
O=C(CC1(O)C(=O)Nc2ccccc21)c1cc2ccccc2o1 (configuration not stated)	0.09	-1
CS(=O)(=O)c1ccc(-c2nnc(NC(=O)c3ccc4c(c3)OCCO4)o2)cc1	1.19	.
NC(=O)C1CC(=O)N(c2ccc(OCC(=O)Nc3ccccc3)cc2)C1 (configuration not stated)	0.82	1.2
CCOC(=O)c1nn(-c2ccc(C)cc2)cc1C#N	.	-0.99
CS(=O)(=O)c1ccc2nc(NC(=O)Nc3cccc(F)c3)sc2c1	1.17	-2.64
Cc1ccccc1Nc1nn2c(=O)c3ccccc3nc2s1	.	-1.19
COc1cc(NC(=O)C2CC(=O)N=C(N)S2)cc(OC)c1 (configuration not stated)	0.36	0.15
